Assay outcomes from PubChem.
ID4 binder: binders of human ID4 protein, primary screen, biochemical, small molecule microarray, single point; DNA-binding protein inhibitor ID-4 (Homo sapiens), P47928; Flag-ID4 binding, fluorescence F/B; calls only; 1.2% of 31,000 active;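 active means spot signal over background at p below 0.07 in all four prints; compounds were printed on slides so no solution concentration is given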;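 further: a binder raises fluorescence above local background on the spot; about 2 pmol printed per array spot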
Target sequence (P47928 whole entry, looked up): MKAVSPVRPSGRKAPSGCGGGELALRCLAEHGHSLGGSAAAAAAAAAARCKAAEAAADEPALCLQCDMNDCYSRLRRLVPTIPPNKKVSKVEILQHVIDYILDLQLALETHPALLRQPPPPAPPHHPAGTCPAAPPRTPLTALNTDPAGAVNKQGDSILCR
Calls only; i = inactive; + = active, no number.

| Structure | ID4 binder |
| --- | --- |
| O=C(CSC1=NCCS1)Nc1ccnc2ccccc12 | i |
| COC(CN1C(=O)C2C3C=CC(C3)C2C1=O)OC (centres undefined) | i |
| C[C@@H]1CN([C@@H](C)CO)C(=O)c2cc(C#CC3CC3)cnc2O[C@@H]1CN(C)Cc1ccccn1 | i |
| COc1c2ccoc2c(OC)c2oc(=O)ccc12 | i |
| CS(=O)(=O)N(CC(=O)Nc1cccc(Cl)c1Cl)c1cc(Cl)c(Cl)cc1Cl | i |
| CCn1c(SCC(=O)Nc2ccc(C)cc2)nc2ccc(I)cc2c1=O | i |
| C[C@@H]1CN([C@@H](C)CO)C(=O)c2ccccc2-c2ccccc2CO[C@H]1CN(C)CC1CC1 | i |
| CCCCCC(O)/C=C/C=O (centres undefined) | i |
| CS(=O)(=O)N1CCN(c2ccccc2NC(=O)COc2ccc(Cl)cc2)CC1 | i |
| COc1ccccc1NC(=O)N[C@H]1CC[C@H](CC(=O)NCc2ccc(Cl)c(Cl)c2)O[C@H]1CO | i |
| CC(=O)N(C)C[C@H]1Oc2ncc(C#Cc3ccccc3F)cc2C(=O)N([C@H](C)CO)C[C@@H]1C | i |
| Cc1ccc(NC(=O)C(C)NS(=O)(=O)c2ccc(Cl)cc2)cc1Cl (centres undefined) | i |
| Cc1c(Br)ccc(NC(=O)CSc2nnnn2-c2ccccc2)c1C | i |
| O=C(N[C@H](COC(=O)[C@H](Cc1ccccc1)NC(=O)c1ccccc1)Cc1ccccc1)c1ccccc1 | i |
| COc1ccc(Cl)cc1NC(=O)C(C)N(c1ccc(C)cc1)S(C)(=O)=O (centres undefined) | i |
| C[C@H]1CN([C@@H](C)CO)C(=O)c2cc(C#Cc3cccnc3)cnc2O[C@H]1CN(C)Cc1ccccc1 | i |
| C[C@H]1CN([C@@H](C)CO)C(=O)c2cc(C#CCc3ccccc3)cnc2O[C@@H]1CN(C)C(=O)Cc1cccnc1 | i |
| COC(=O)c1c(NC(=S)Nc2ccn(C)n2)sc(C)c1-c1ccccc1 | i |
| CNC[C@H]1Oc2ncc(-c3ccccc3C)cc2C(=O)N([C@@H](C)CO)C[C@@H]1C | i |
| C[C@H]1CN([C@@H](C)CO)C(=O)c2cc(C3=CCCC3)cnc2O[C@@H]1CN(C)Cc1cccc(F)c1 | i |
| CCOc1cc(S(=O)(=O)NCc2cccnc2)ccc1Cl | i |
| CC1=C(/C=C/C(C)=C/C=C/C(C)=C\C(=O)O)C(C)(C)CCC1 | i |
| COc1cc(O)cc(/C=C/c2ccccc2)c1 | i |
| C[C@@H]1CN([C@@H](C)CO)C(=O)c2c(c3ccccc3n2C)-c2ccccc2CO[C@H]1CN(C)CC1CC1 | i |
| CNC[C@H]1Oc2ncc(/C=C/c3ccccc3)cc2C(=O)N([C@@H](C)CO)C[C@H]1C | i |
| C[C@@H]1CN([C@@H](C)CO)S(=O)(=O)c2ccc(C#CCC3CCCC3)cc2O[C@@H]1CN(C)C | i |
| CCC(=O)N(C)C[C@H]1Oc2ncc(-c3ccccc3C)cc2C(=O)N([C@@H](C)CO)C[C@H]1C | i |
| O=C(COc1ccc([N+](=O)[O-])cc1)Nc1cccc(O)c1 | i |
| CC(C)CC#Cc1cnc2c(c1)C(=O)N([C@@H](C)CO)C[C@@H](C)[C@@H](CN(C)C(=O)C1CCCCC1)O2 | i |
| O=C(N[C@@H]1C=C[C@@H](CC(=O)N2CCCCC2)O[C@H]1CO)c1cccc(F)c1 | i |
| CCCN(C)C[C@H]1Oc2cc(-c3ccccc3C)ccc2S(=O)(=O)N([C@H](C)CO)C[C@H]1C | i |
| NC(=O)CS(=O)(=O)c1nc2ccccc2n1Cc1ccccc1F | i |
| COc1cc(CO)ccc1OCC(=O)Nc1ccccc1F | i |
| O=C(CNS(=O)(=O)c1cc(Cl)ccc1Cl)Nc1cccc([N+](=O)[O-])c1 | i |
| C[C@H]1CN([C@@H](C)CO)C(=O)c2cc(/C=C/c3ccccc3)cnc2O[C@H]1CN(C)C(=O)C1CCC1 | i |
| O=C(O)C[C@H]1CC[C@@H](NC(=O)c2ccccc2F)[C@@H](CO)O1 | i |
| Cc1ccc(C)c(OCC(O)CN2CCN(CCO)CC2)c1 (centres undefined) | i |
| C[C@H](CO)N1C[C@H](C)[C@H](CN(C)CC2CC2)Oc2c(NC(=O)C3CCCCC3)cccc2C1=O | i |
| COc1cccc(-c2cnc3c(c2)C(=O)N([C@@H](C)CO)C[C@@H](C)[C@@H](CN(C)CC2CC2)O3)c1 | i |
| CCCC#Cc1ccc2c(c1)O[C@@H](CN(C)Cc1ccccc1)[C@H](C)CN([C@@H](C)CO)S2(=O)=O | i |
| Cc1cccc(NC(=O)c2ccccc2NC(=O)COc2cccc([N+](=O)[O-])c2)c1C | i |
| C[C@H]1CN([C@@H](C)CO)C(=O)c2ccccc2-c2ccccc2CO[C@@H]1CN(C)Cc1ccc(F)cc1 | i |
| CNC[C@H]1Oc2cc(C#CC3CCCCC3)ccc2S(=O)(=O)N([C@H](C)CO)C[C@@H]1C | i |
| Cc1c(C(=O)C2C(=O)C(=O)N(Cc3cccnc3)C2c2ccccn2)cnn1-c1ccccc1 (centres undefined) | + |
| CC(=O)N1N=C(N)SC12CCCC2 | i |
| Cc1cc(Br)ccc1NC(=O)Cn1nc(C)c([N+](=O)[O-])c1C | i |
| C[C@@H](NC(=O)C[C@@H]1C[C@@H]2c3cc(NC(=O)C4CCOCC4)ccc3O[C@@H]2[C@@H](CO)O1)c1ccccc1 | i |
| COc1cc(NC(=O)CCN2CCOCC2)cc(OC)c1 | i |
| Cc1cc(NC(=O)Cn2nc([N+](=O)[O-])cc2C)ccc1Br | i |
| C[C@H](CO)N1C[C@H](C)[C@@H](CN(C)CC2CCCCC2)OCc2cnnn2CCCC1=O | i |
| CCOC(=O)c1cn(Cc2cccc(Cl)c2)c2cc(C)nn2c1=O | i |
| O=[N+]([O-])c1ccccc1NCCNS(=O)(=O)c1ccc(Cl)c(Cl)c1 | i |
| COc1cc(OC)c(C2=NOC(C(=O)Nc3sc4c(c3C#N)CCCC4)C2)cc1Cl (centres undefined) | i |
| O=C(CCN1C(=O)c2ccccc2C1=O)Nc1ccccc1C(=O)N1CCOCC1 | i |
| CCC(=O)N(C)C[C@@H]1Oc2ncc(C#CCc3ccccc3)cc2C(=O)N([C@@H](C)CO)C[C@H]1C | i |
| Cc1ccc(NC(=O)Cn2nc([N+](=O)[O-])c(Br)c2C)cc1C | i |
| C[C@@H]1CN([C@@H](C)CO)C(=O)c2cc(C#Cc3cccc(F)c3)cnc2O[C@@H]1CN(C)C(=O)C1CCC1 | i |
| COc1ccccc1NC(=O)C1CC(=O)n2c(nc3ccccc32)N1 (centres undefined) | i |
| CCOC(=O)c1c(NC(=O)CSc2nc3ccccc3o2)sc(C)c1C | i |
| CC(=O)Nc1ccc(C(=O)CSc2nc(-c3ccccc3)cs2)cc1 | i |

COc1ccc(NC(=O)COc2ccccc2Cl)c([N+](=O)[O-])c1
- ID4 binder = i

COc1ccc(N(Cc2cc3cccc(C)c3[nH]c2=O)S(C)(=O)=O)cc1
- ID4 binder = i

CS(=O)(=O)N(CC(=O)Nc1cccc(C(F)(F)F)c1)Cc1ccccc1
- ID4 binder = i

O=C(C[C@@H]1C=C[C@H](NC(=O)c2cccc(F)c2)[C@H](CO)O1)NCc1ccccc1
- ID4 binder = i

COc1ccc(N(CC(=O)Nc2ccc(C(F)(F)F)cc2)S(C)(=O)=O)cc1Cl
- ID4 binder = i

O=C(CC1NCCNC1=O)Nc1cccc([N+](=O)[O-])c1 (centres undefined)
- ID4 binder = i

CC(C)(O)C#Cc1ccccc1C(=O)NC(CC(=O)O)c1ccccc1 (centres undefined)
- ID4 binder = i

O=C(c1ccccc1)c1cc(Br)ccc1NC(=O)C1CC=CCC1C(=O)O (centres undefined)
- ID4 binder = i

C[C@@H]1CN([C@@H](C)CO)C(=O)c2cc(C#Cc3cccc(F)c3)cnc2O[C@@H]1CN(C)C(=O)C1CC1
- ID4 binder = i

Cc1cccc(-n2c(SCC(=O)c3ccccc3)nnc2-c2cccs2)c1C
- ID4 binder = i

The final 2 compounds of the section above are carried over, then new ones follow.
C[C@@H]1CN([C@@H](C)CO)C(=O)c2cc(C#Cc3cccc(F)c3)cnc2O[C@@H]1CN(C)C(=O)C1CC1
- ID4 binder = i

Cc1cccc(-n2c(SCC(=O)c3ccccc3)nnc2-c2cccs2)c1C
- ID4 binder = i

O=C(O)COc1ccc2occ(C(=O)c3ccccc3)c2c1
- ID4 binder = i

CCn1c(SCC(=O)Nc2ccccc2C(F)(F)F)nnc1-c1ccc(N)cc1
- ID4 binder = i

CCOC(=O)c1ccc(NC(=O)Cn2cc([N+](=O)[O-])cn2)cc1
- ID4 binder = i

C[C@@H]1CN([C@@H](C)CO)C(=O)c2cc(Br)cnc2O[C@@H]1CN(C)C(=O)c1ccccc1F
- ID4 binder = i

COc1cccc(N(CC(=O)Nc2ccc(C(F)(F)F)cc2)S(C)(=O)=O)c1
- ID4 binder = i

O=C(O)CSc1nnc(-c2ccc(Cl)cc2Cl)n1-c1ccccc1
- ID4 binder = i

Cc1ccc(NC(=O)CCN2C(=O)c3ccccc3C2=O)cc1[N+](=O)[O-]
- ID4 binder = i

Cc1ccnc(NC(=O)COc2ccc(Cl)cc2)n1
- ID4 binder = i

Cc1ccc(S(=O)(=O)N2C(=O)CCC2C(=O)Nc2ccc3c(c2)OCCO3)cc1 (centres undefined)
- ID4 binder = i

C/C=C/c1cnc2c(c1)C(=O)N([C@@H](C)CO)C[C@@H](C)[C@H](CN(C)C(=O)c1cccc(F)c1)O2
- ID4 binder = i

CCCN(C)C[C@@H]1Oc2ncc(C#CCOC)cc2C(=O)N([C@@H](C)CO)C[C@@H]1C
- ID4 binder = i

Cc1noc(C)c1NC(=O)N(C)C[C@@H]1Oc2cc(C#CCN(C)C)ccc2S(=O)(=O)N([C@H](C)CO)C[C@@H]1C
- ID4 binder = i

Cc1nc2nc(NCc3cccc([N+](=O)[O-])c3)[nH]n2c(=O)c1Cc1ccccc1
- ID4 binder = i

CC(C)c1ccc(NC(=O)CNS(=O)(=O)c2ccc(Br)cc2)cc1
- ID4 binder = i

CC(NS(=O)(=O)c1ccc(Cl)cc1)C(=O)Nc1ccccc1Sc1ccccc1 (centres undefined)
- ID4 binder = i

CCCC#Cc1ccc2c(c1)O[C@@H](CN(C)CC1CC1)[C@@H](C)CN([C@H](C)CO)S2(=O)=O
- ID4 binder = i

Cc1ccc(S(=O)(=O)N[C@H]2CC[C@@H](CC(=O)N3CCC(Cc4ccccc4)CC3)O[C@@H]2CO)cc1
- ID4 binder = i

CCOC(=O)C1CCCN(Cc2nc(N)nc(Nc3ccccc3)n2)C1 (centres undefined)
- ID4 binder = i

Cc1ccc(-c2nn(C)c(=O)c3ccccc23)cc1CNC(=O)CN1CCOCC1
- ID4 binder = i

C/C=C/c1cnc2c(c1)C(=O)N([C@H](C)CO)C[C@H](C)[C@@H](CN(C)C(=O)Cc1ccccc1)O2
- ID4 binder = i

Among those listed so far, these have a CF3 group:
CS(=O)(=O)N(CC(=O)Nc1cccc(C(F)(F)F)c1)Cc1ccccc1
- ID4 binder = i

COc1ccc(N(CC(=O)Nc2ccc(C(F)(F)F)cc2)S(C)(=O)=O)cc1Cl
- ID4 binder = i

CCn1c(SCC(=O)Nc2ccccc2C(F)(F)F)nnc1-c1ccc(N)cc1
- ID4 binder = i

COc1cccc(N(CC(=O)Nc2ccc(C(F)(F)F)cc2)S(C)(=O)=O)c1
- ID4 binder = i

Further records.
O=C(C[C@H]1C[C@@H]2c3cc(NC(=O)C4CCC4)ccc3O[C@@H]2[C@@H](CO)O1)NCc1cccc(F)c1
- ID4 binder = i

COc1ccc(C)cc1NC(=O)c1ccc(OCC(=O)Nc2cccc(C(F)(F)F)c2)cc1
- ID4 binder = i

Cc1nnc(SCc2nc(-c3ccc(Br)cc3)no2)n1-c1ccccc1
- ID4 binder = i

O=C(Nc1ccccc1C(=O)NCCN1CCOCC1)c1cccc([N+](=O)[O-])c1
- ID4 binder = i

CCCN(C)C[C@@H]1Oc2cc(-c3ccccc3OC)ccc2S(=O)(=O)N([C@H](C)CO)C[C@@H]1C
- ID4 binder = i

C[C@@H]1CN([C@@H](C)CO)S(=O)(=O)c2ccc(C#CC3CCCCC3)cc2O[C@@H]1CN(C)C
- ID4 binder = i

Nc1nncn1C(=O)CCCN1C(=O)c2ccccc2C1=O
- ID4 binder = i

CC(=O)N[C@H]1CC[C@H](CC(=O)NCc2ccc(Cl)cc2)O[C@@H]1CO
- ID4 binder = i

C[C@@H]1CN([C@H](C)CO)S(=O)(=O)c2ccc(/C=C/c3ccccc3)cc2O[C@@H]1CN(C)Cc1cccnc1
- ID4 binder = i

C[C@@H]1CN([C@H](C)CO)C(=O)c2cc(-c3cccc(C(=O)N(C)C)c3)cnc2O[C@@H]1CN(C)C(=O)Cc1ccccn1
- ID4 binder = i

Random excerpt: 2 entries already listed, in no set order.
Nc1nncn1C(=O)CCCN1C(=O)c2ccccc2C1=O
- ID4 binder = i

CC(=O)N[C@H]1CC[C@H](CC(=O)NCc2ccc(Cl)cc2)O[C@@H]1CO
- ID4 binder = i

New compounds follow:
CS(=O)(=O)N(CC(=O)Nc1ccc(I)cc1)c1cccc2ccccc12
- ID4 binder = i

CS(=O)(=O)N(CC(=O)Nc1ccc(Cl)c(Cl)c1)c1ccc(Br)cc1
- ID4 binder = i

NC(=O)CSc1nnc(-c2cnccn2)n1-c1ccccc1
- ID4 binder = i

C[C@H]1CN([C@@H](C)CO)S(=O)(=O)c2ccc(C#CC3CC3)cc2O[C@@H]1CN(C)Cc1ccccc1
- ID4 binder = i

O=C(N[C@H]1CC[C@H](CC(=O)N2CCc3ccccc3C2)O[C@H]1CO)C1CCOCC1
- ID4 binder = i

O=C(Nc1ccccc1)c1cc([N+](=O)[O-])ccc1Cl
- ID4 binder = i

Cc1cccc(NC(=O)C(C)N(c2ccc(Oc3ccccc3)cc2)S(C)(=O)=O)c1 (centres undefined)
- ID4 binder = i

C[C@@H]1CN([C@@H](C)CO)C(=O)c2cc(-c3cccnc3)cnc2O[C@H]1CN(C)C
- ID4 binder = +

CN(C)c1ccc(NC(=O)CSc2nc3ccccc3c(=O)n2-c2ccc(Cl)cc2)cc1
- ID4 binder = i

O=C(CSc1n[nH]c(-c2ccncc2)n1)Nc1ccccc1F
- ID4 binder = i

This is a subset (hit frequency here may not be typical).
